Screening results: PubChem, several laboratories
Vif A3G: inhibitors of Vif binding to APOBEC3G peptide, primary screen, biochemical, TR-FRET, GST-Vif 1-94, biotin-A3G peptide, dose response retest (AID 1117319); Virion infectivity factor (Human immunodeficiency virus type 1 group M subtype B (isolate …; TR-FRET GST-Vif / biotin-A3G peptide binding; higher % means a stronger effect; test concentration not given here; strong numbers were not always called active; one-dose inhibition, %; IC50 in µM for titrated hits; actives 0.57% (n = 260,000);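 active means above the screen mean plus three standard deviations and confirmed in dose response; inconclusive means results disagree or hit not tested in dose response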;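 further: Vif residues 1-94 fused to GST binding biotinylated APOBEC3G peptide 110-148; 0% = full assay without inhibitor and 100% = GST in place of GST-Vif; retest series ran down from 100 µM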
A1 inh: caspase 3/7 activation in MEF A1-2A-BIM cells, primary screen, A1 inhibitor project, cell-based, luminescence, HTS | caspase activation, % (test concentration not listed) | actives 0.066% (n = 330,000) | Caspase-Glo 3/7 luminescence, 3 h; percent of clofoctol response, vehicle zero | AID 2462, 2010;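 active means over half of replicate activation scores above 10%, or exactly half above 10 with the replicate mean above 10; inconclusive means replicate mean below 10 yet half the replicates above 10; inactive means over half of replicates below 10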;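 further: wells of about 30 µL received 50 nL stock; many hits fall short of the cut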
E coli growth: E. coli growth inhibition, primary screen, OD600; actives 0.21% (n = 330,000); Escherichia coli growth, 23 h; stronger effect = lower value; OD600 absorbance (test concentration not listed); AID 1053175, 2014;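 active means OD600 absorbance below the run mean of sample wells minus 3.6 SD, in any replicate, cut at about 0.56 in these data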;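 further: stock transfer was 300 nL into about 60 µL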
HNF4A DNA FP: change in binding of human HNF4A to DNA, primary screen, biochemical, fluorescence polarization, FITC-DNA. actives 0.3% (n = 360,000). Hepatocyte nuclear factor 4-alpha (Homo sapiens), P41235. activity change, % at 10 µM. 1 h; in the data active means activity change above about 30%, passing the limit was not always enough;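 further: controls were the assay level and a saturating level of protein; the project sought stronger binding though the title names inhibitors; some compounds called inactive have numbers as strong as hits; positive values seem to mean higher polarization but the record does not say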
UCH37 inh: inhibitors of human UCH37 deubiquitinase, primary screen, biochemical, Ub-AMC cleavage, fluorescence; AID 588478, 2011; inhibition, % (no concentration beside the values); actives 0.33% (n = 330,000); purified proteasome/UCH37;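 active means mean of two replicates above 20%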;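 further: 0% = compound-free wells with enzyme and 100% = wells lacking proteasome; stock transfer was 100 nL into about 20 µL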
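Material: human UCH37 enzyme supplied as purified proteasome complex. Measure: % inhibition of Ub-AMC cleavage fluorescence. Medium: pH 7.4 Tris-HCl (50 mM) with ovalbumin, ATP-MgCl2, DTT. Times: 30 min preincubation with enzyme, 25 min cleavage at room temperature. Detection: AMC fluorescence intensity at 355/460 nm.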
LANA-H2B inh: blockers of LANA interaction with H2A/H2B – biochemical, FP readout, HTS, primary screen | Protein LANA1 (Human herpesvirus 8 type P (isolate GK18)), Q9QR71 | cell-free LANA-H2A/H2B peptide, fluorescence polarization | inhibition, % (test concentration not listed) | actives 0.6% (n = 320,000) | AID 2629, 2010; in the data active means inhibition mostly above about 10%, no sharp cut-off; inactive means mostly below about 6.7%;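 further: stock transfer was 7.5 nL into about 10 µL; 0% = median of vehicle wells and 100% = median of positive control wells; one replicate is shown; the record names a cut of 25% in any replicate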
Target sequence (Q9QR71 whole entry, looked up): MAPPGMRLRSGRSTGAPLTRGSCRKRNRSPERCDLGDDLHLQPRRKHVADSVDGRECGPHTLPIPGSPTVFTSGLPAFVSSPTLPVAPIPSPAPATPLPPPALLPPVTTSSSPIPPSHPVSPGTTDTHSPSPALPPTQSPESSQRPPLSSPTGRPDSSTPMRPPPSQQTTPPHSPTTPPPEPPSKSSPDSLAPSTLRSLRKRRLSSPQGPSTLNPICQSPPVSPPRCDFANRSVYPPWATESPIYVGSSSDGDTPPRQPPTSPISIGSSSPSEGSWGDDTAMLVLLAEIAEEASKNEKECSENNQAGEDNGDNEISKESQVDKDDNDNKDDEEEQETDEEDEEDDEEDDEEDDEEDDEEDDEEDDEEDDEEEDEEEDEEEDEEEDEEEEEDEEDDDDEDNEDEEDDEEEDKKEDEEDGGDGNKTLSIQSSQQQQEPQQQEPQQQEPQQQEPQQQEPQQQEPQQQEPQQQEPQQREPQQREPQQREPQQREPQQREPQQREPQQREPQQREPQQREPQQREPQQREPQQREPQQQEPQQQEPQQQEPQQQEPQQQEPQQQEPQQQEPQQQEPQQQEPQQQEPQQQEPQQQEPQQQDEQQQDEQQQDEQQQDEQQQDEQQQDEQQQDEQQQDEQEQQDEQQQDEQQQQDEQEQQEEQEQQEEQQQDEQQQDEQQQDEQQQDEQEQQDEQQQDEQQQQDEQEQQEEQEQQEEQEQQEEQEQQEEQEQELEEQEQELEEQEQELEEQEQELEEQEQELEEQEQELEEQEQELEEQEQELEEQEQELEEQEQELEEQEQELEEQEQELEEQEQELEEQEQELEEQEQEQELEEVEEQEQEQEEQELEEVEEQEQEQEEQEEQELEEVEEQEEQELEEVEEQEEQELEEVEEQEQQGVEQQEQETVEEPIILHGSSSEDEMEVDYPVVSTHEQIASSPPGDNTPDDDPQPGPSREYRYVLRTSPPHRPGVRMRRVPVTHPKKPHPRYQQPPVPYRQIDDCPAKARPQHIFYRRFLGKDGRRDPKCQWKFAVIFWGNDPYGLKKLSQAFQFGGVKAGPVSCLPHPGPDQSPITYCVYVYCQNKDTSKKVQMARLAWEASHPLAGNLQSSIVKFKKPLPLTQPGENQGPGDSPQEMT
Beta2AR agonist: beta2AR agonists driving receptor internalization, primary screen, cell-based, FAP fluorogen, flow cytometry; response, % (no concentration beside the values); Am2.2-beta2AR cells; reference of the scale not given here; actives 0.43% (n = 340,000); AID 504454, 2011; Beta-2 adrenergic receptor (Homo sapiens), P07550;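 active means response above a set limit, near 3 SD of response in nonfluorescent compounds, cut at about 42% in these data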;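 further: stock transfer was 100 nL into about 11 µL; a reference agonist was the positive control; negative values mostly stem from fluorescent compounds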
Active calls of the source: *; ? = inconclusive; · = not tested or not shown.

The line under a structure holds: Vif A3G, A1 inh, E coli growth, HNF4A DNA FP, UCH37 inh, LANA-H2B inh, Beta2AR agonist
O=C(CN1CCCCC1)N/N=C/c1ccccc1OCc1ccccc1
→ -1%, -2.3, ·, -1.2, ·, -4.3, -18
CS(=O)(=O)Nc1ccc2c(c1)nc1n2CCOC1
→ 3%, -0.4, 0.69, 1.2, 2.7, -3.0, -1
NC(=O)Nc1ccc(C(=O)OCC(=O)N2CCCC2=O)cc1
→ 12%, 0.3, 0.69, -6.5, 3.1, 8.2, 26
Cc1cc(=O)oc2c(C)c(OC(C)C(=O)NCCCN3CCOCC3)ccc12 (stereo unspecified)
→ ·, 1.4, 0.69, 3.9, -6.7, 5.4, -4
COc1ccccc1C(=O)N/N=C/c1cnc2ccccc2n1
→ -6%, -0.4, ·, -0.7, ·, 4.4, 0
Cc1nc2c(c(C)nn2-c2ccccc2)c(C)c1CCC(=O)NCCCOC(C)C
→ 3%, -1.9, 0.66, 1.7, -41, -7.3, -9
COc1ccc(-c2noc(-c3ccccc3C(=O)Nc3cccnc3)n2)cc1
→ -3%, -0.3, 0.68, 0.5, 0.9, -2.5, -4
O=C(NCCc1ccc(C(F)(F)F)cc1)C1CCC(=O)N(CCc2cccc(F)c2)C1 (stereo unspecified)
→ ·, 0.3, 0.71, 0.1, 3.4, 0.0, 2
COc1ccc(S(=O)(=O)N2CCc3ccccc3C2)cc1OC
→ -2%, 0.4, 0.7, 1.8, 5.4, 4.6, -7
Cn1c(CBr)c(C(=O)c2ccc([N+](=O)[O-])cc2)c(=O)n(C)c1=O
→ 9%, 1.2, 0.72, -3.3, 5.6, -1.1, -1
Cc1ccc(NC(=O)CN(C)CC(=O)N(CC(C)C)c2c(N)n(CC(C)C)c(=O)[nH]c2=O)c(C)c1
→ -11%, -1.0, 0.68, 0.8, 1.0, -0.7, -4
COc1ccc2c(c1)CCc1c(C(=O)N3CCCCCC3)noc1-2
→ 7%, -1.9, 0.63, -3.3, 2.9, 5.7, 6
COc1ccc(NS(=O)(=O)c2cccc(C(=O)NNC(=O)c3cccc(NC(C)=O)c3)c2)cc1
→ 2%, 0.2, 0.68, 1.2, -0.5, -0.4, -3
COC(=O)CC1SC(=O)NC1=O (stereo unspecified)
→ 7%, 0.7, 0.71, 1.1, 2.1, -2.6, -4
CC1CCC(NC(=O)C2CCN(c3nc4ccccc4s3)CC2)CC1 (stereo unspecified)
→ 8%, -0.4, 0.71, 0.0, -1.7, 0.5, 4
COc1ccccc1C(=O)Nc1ccc2c(c1)nc(CCNC(=O)c1ccco1)n2C
→ ·, 0.2, 0.65, 3.0, 2.2, -1.1, 0
Cc1ccccc1C(=O)NN(C)c1nc2ccccc2nc1C(F)(F)F
→ 28%, 0.4, 0.77, -3.6, -9.5, -1.3, -3
COc1ccc(-c2nnc(SCC(=O)c3cccs3)o2)cc1
→ -73%, -9.9, 0.76, -0.9, 5.0, -1.3, -6
COc1ccc(N=C2C(=Nc3ccc(OC)cc3)N(c3ccccc3)C(=S)N2C(=O)c2ccc(Cl)cc2)cc1
→ 6%, -0.1, 0.75, -1.4, 10, 3.1, 5
COC(Cc1ccccc1N1CCCC1=O)OC
→ ·, 0.2, 0.69, -3.1, 3.1, 2.7, 2
Cn1cc([N+](=O)[O-])c(C(=O)NCC(=O)O)n1
→ -2%, 0.1, 0.67, 0.9, 3.6, -1.5, 2
Cn1c(CN2CCN(CC#N)CC2)c(C#N)c2ccccc21
→ -1%, 0.2, 0.66, -0.3, 3.2, 4.6, 2
COc1nnc(-c2ccc(C)cc2)c2ccccc12
→ ·, 1.8, 0.66, -0.3, 1.7, -1.0, -8
COc1ccc(CCNC(=O)c2ccc(CS(=O)(=O)c3ccc(C)cc3)o2)cc1OC
→ 6%, 0.1, 0.72, -4.8, 2.4, -0.4, 2
CCC(C)C(=O)Nc1ncc2c(n1)CC(c1cccs1)CC2=O (stereo unspecified)
→ -1%, 0.2, 0.73, 0.2, -2.3, -0.8, -2
CC(C)Sc1nnc(NC(=O)c2ccc3c(c2)OCO3)s1
→ ·, -0.7, 0.74, -4.8, -9.6, -3.2, 10
Cc1ccsc1C(=O)OCC(=O)NC1CCCCC1C (stereo unspecified)
→ ·, ·, 0.68, 1.1, 2.7, ·, -7
O=C(Cn1nc(-c2cccs2)ccc1=O)Nc1ccc(Br)cc1
→ ·, 0.3, 0.7, 4.6, -4.5, -1.6, -1
O=C(COC(=O)/C=C/c1ccc(Cl)cc1Cl)NCc1ccco1
→ 1%, -1.6, 0.68, 1.6, 1.2, 2.3, -4
O=C1CN(C(=O)c2ccccc2F)C(c2ccc(F)cc2)c2cc(F)ccc2N1 (stereo unspecified)
→ ·, 0.1, 0.64, -4.7, 0.8, 2.1, 2
CC1CCc2nc(NC(=O)CSc3nc4ccccc4o3)sc2C1 (stereo unspecified)
→ 3%, 0.4, 0.65, -1.1, -2.0, 4.7, -6
Cc1cccc(Nc2nnc(SCC(=O)NC(=O)Nc3ccc4c(c3)OCCO4)s2)c1
→ ·, -1.6, ·, 1.7, ·, 4.7, -1
CCCC(C(=O)NNC(=O)c1ccncc1)c1ccccc1 (stereo unspecified)
→ -8%, -1.8, 0.67, -4.0, -0.7, 3.7, 1
CCOC(=O)CCP(=O)(O)C(C)(O)c1ccccc1 (stereo unspecified)
→ -4%, -0.3, 0.69, 4.0, 5.0, 2.1, 3
CCc1ccc(NC(=S)NCc2cccnc2)cc1
→ 3%, 0.6, 0.61, -1.4, 2.5, -1.5, 4
O=C1Cc2ccccc2Sc2ccccc21
→ 23%, 1.0, 0.69, 4.2, -0.2, 2.1, 14
CN(C)CCNC(=O)c1cccc2[nH]c(-c3ccncc3)nc12
→ -6%, ·, ·, -5.6, ·, ·, -34
O=C(CCC(=O)OCC(F)(F)C(F)F)Nc1ccc(F)cc1F
→ -4%, 1.0, 0.72, -1.3, 2.7, -2.6, 3
CCOc1ccc(NS(=O)(=O)c2cc(C(=O)N3CCC3)ccc2Cl)cc1
→ 3%, 0.9, 0.66, 2.7, -0.6, 0.8, -3
CCc1ccc(OCCOCC(O)CNC(C)(C)C)cc1 (stereo unspecified)
→ 13%, -0.5, 0.71, 1.7, 3.8, -5.0, 0
Cc1cc(C(=O)COc2cccnc2[N+](=O)[O-])c(C)n1-c1ccccc1F
→ 5%, 0.2, 0.67, 6.1, 2.2, -8.8, 2
CCOC(=O)N1CCC(NC(=O)c2cccc3c2C(=O)N(CCOC)C3)CC1
→ 3%, 0.3, 0.7, -0.2, -1.2, 2.6, 13
Cc1cc(C)cc(NC(=S)NCc2cccnc2)c1
→ -6%, 0.4, 0.68, -3.0, 0.6, -0.6, -4
COc1cnc(-c2ccccn2)nc1Oc1ccc(Cl)c2ccccc12
→ -15%, -0.5, 0.66, 6.6, 2.9, 2.9, 8
O=C(COc1ccccc1)Nc1nc(-c2cccnc2)cs1
→ -9%, -0.4, 0.69, 1.2, -0.3, 1.9, 10
Cc1ccc(-c2noc(C3CCCN(C(=O)C4CCCCC4)C3)n2)o1 (stereo unspecified)
→ 7%, 0.1, 0.65, -3.2, 1.5, 6.8, 6
CC(=O)Nc1ccc(S(=O)(=O)NCC(=O)OCC(=O)c2ccc[nH]2)cc1
→ ·, -0.3, 0.71, 1.9, 3.7, -1.0, 8
O=C(Nc1nccs1)c1c(O)c2cccc3c2n(c1=O)CCC3
→ -3%, -0.2, ·, ·, ·, 9.0, ·
COc1ccc(N2CC(C(=O)N/N=C/c3cccs3)CC2=O)cc1 (stereo unspecified)
→ 0%, -0.5, ·, 0.1, ·, -4.9, -372
O=C(CCc1ccccc1)NC(=S)Nc1ccccc1[N+](=O)[O-]
→ 1%, 0.3, 0.7, 0.1, -1.9, -1.9, -17

Continuation:
The line under a structure holds: Vif A3G, A1 inh, E coli growth, HNF4A DNA FP, UCH37 inh, LANA-H2B inh, Beta2AR agonist
CSc1nnc(-c2cccs2)n1C
→ 9%, 0.3, 0.64, 2.2, 1.1, -1.3, 2
Cc1nn(CCCC(=O)O)c(C)c1[N+](=O)[O-]
→ 14%, 0.6, 0.66, -1.3, 4.9, -2.1, 6
O=C(Nc1cccc(-c2nc3ccccc3s2)c1)C1=COCCO1
→ -1%, -1.8, 0.66, 0.5, 1.5, 2.2, -18
O=S1(=O)N=C(c2ccccc2)c2ccccc21
→ ·, -0.9, 0.69, -0.7, 0.8, -1.0, 3
CCOC(=O)c1cnc(SC)nc1Oc1cccc(NS(=O)(=O)c2ccc(F)cc2)c1
→ -12%, 0.2, 0.72, -3.4, 1.5, 4.5, -5
COc1ccc(C(CNC(=O)CSc2ccc(Br)cc2C)N2CCOCC2)cc1 (stereo unspecified)
→ 2%, -0.7, 0.65, -0.1, 2.5, 6.7, 10
Clc1ccc(NC2=NCCC2)cc1Cl
→ -6%, -0.7, 0.67, -3.9, -0.8, 3.8, 6
COc1ccc(OCCSc2n[nH]c(N)n2)cc1
→ 2%, -0.1, 0.71, -4.3, 0.6, -0.1, -21
O=[N+]([O-])c1ccc2c(c1N1CCCCC1)=NC1(CCCCC1)[N+]=2[O-]
→ ?, -0.5, 0.66, -2.5, 10, 3.5, 12
Cc1cc(C)n(C(=O)COc2ccccc2[N+](=O)[O-])n1
→ -5%, 0.6, 0.7, 0.3, 5.4, -1.3, -6
Cc1ccc(NC(=S)Nc2cccc3cnccc23)cc1
→ ·, -0.1, 0.64, 4.2, 4.5, 0.3, 3
COc1ccc(S(=O)(=O)N2CCCCC2)cc1NC(=O)Cc1c[nH]c2ccccc12
→ ·, 0.3, ·, -1.2, ·, -0.2, 2
CN(CC(=O)Nc1c(Cl)cccc1Cl)C(=O)c1ccccc1-c1nc2ccccc2s1
→ ·, 1.3, ·, 2.6, ·, 3.0, 8
Brc1ccc2c(c1)OCCOCCOCCOCCOCCO2
→ ·, -1.1, 0.7, -2.8, 1.3, -1.1, 1
Cc1ccc(Cl)cc1NC(=O)Nc1cccs1
→ 14%, 0.1, 0.64, -0.8, -0.1, -5.0, -11
CCOC(=O)c1oc2cccc(O)c2c1C
→ 2%, -5.6, 0.64, 0.9, -9.3, -1.2, -7
CCOC(=O)c1c(NC(=S)Nc2ccccc2)sc2c1CCCCC2
→ 5%, 0.0, 0.72, 2.1, 1.2, -2.0, 7

Reprinted at random: 2 entries already listed
The line under a structure holds: Vif A3G, A1 inh, E coli growth, HNF4A DNA FP, UCH37 inh, LANA-H2B inh, Beta2AR agonist
Cc1nn(CCCC(=O)O)c(C)c1[N+](=O)[O-]
→ 14%, 0.6, 0.66, -1.3, 4.9, -2.1, 6
CCOC(=O)c1c(NC(=S)Nc2ccccc2)sc2c1CCCCC2
→ 5%, 0.0, 0.72, 2.1, 1.2, -2.0, 7
